HSV augment: increases HSV replication in cells; HSV replication augmentation in cells, fold increase; maximum fold increase; 0.005% of 220,000 active;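 active means peak rise of 1.5-fold or more in the series; tested in PC3 cells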;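 further: first round at 10 µM; read as green reporter fluorescence; hits show the peak of a series up to 25 µM; 1 = signal of infected wells without compound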
HSV augment primary fold: also measured in HSV augment; calls as there; fold increase; compound at 10 µM; measured here: primary screen fold increase 10 uM; tested in PC3 cells;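 GFP signal in the first replicate; 1 = infected wells without compound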
* hit, by the source's call; i = inactive.

SMILES | HSV augment | HSV augment primary fold
Cc1nnc(SCCCOc2ccccc2)nc1C | i | 1.2
CCOC(=O)C1=C(C)N(CCCC(=O)O)C(=O)NC1c1ccc2ccccc2c1 (centres undefined) | i | 0.89
Cn1nc(CC(=O)Nc2cccnc2N2CCOCC2)c2ccccc2c1=O | i | 0.96
CCN1C(=O)N[C@@H](c2ccccc2)[C@H](C(=O)OC)[C@H]1C | i | 0.81
CCC1(CC)C(=O)C2=C3C1[C@H](C(=O)OC)C=C(C(=O)OC)C[C@H]3n1c(=O)n(-c3ccccc3)c(=O)n1[C@H]2C (some centres undefined) | i | 0.97
COc1ccc(C2=NOC(C)(c3nnc(-c4ccccc4)o3)C2)cc1 (centres undefined) | i | 0.95
COCOc1ccc(C=O)c(O)c1 | i | 0.88
O=C(NC1CCCCC1)c1ccc2c(c1)S(=O)(=O)c1ccccc1C2=O | i | 0.69
CC(C)=CCc1c2c(c(O)c3c(=O)c4c(oc13)-c1cc(O)c(O)cc1OC4C=C(C)C)C=CC(C)(C)O2 (centres undefined) | i | 1.1
COc1ccc(Br)cc1/C=c1\sc2nc(-c3ccco3)nn2c1=O | i | 1

Reprinted from the part before: 3 entries; new compounds follow.
SMILES | HSV augment | HSV augment primary fold
O=C(NC1CCCCC1)c1ccc2c(c1)S(=O)(=O)c1ccccc1C2=O | i | 0.69
CC(C)=CCc1c2c(c(O)c3c(=O)c4c(oc13)-c1cc(O)c(O)cc1OC4C=C(C)C)C=CC(C)(C)O2 (centres undefined) | i | 1.1
COc1ccc(Br)cc1/C=c1\sc2nc(-c3ccco3)nn2c1=O | i | 1
Cc1ccc(Cn2c(C(CO)Nc3nc(-c4ccc(Cl)c([N+](=O)[O-])c4)cs3)nc3ccccc32)cc1 (centres undefined) | i | 0.69
CCC1CCCCN1Cc1nc2c(c(=O)n(C)c(=O)n2C)n1Cc1cccc2ccccc12 (centres undefined) | i | 0.9
Cc1cccc(CN2C(=O)[C@@H]3Cc4c([nH]c5ccccc45)C(C)(C)N3C2=O)c1 | i | 0.95
O=C1[C@H]2[C@H](C=CC[C@H]2C(=O)N2CCOCC2)CCN1Cc1ccc(Cl)c(Cl)c1 | i | 1.1
C#Cc1ccc([C@H]2C=C(C(=O)OCC=C)O[C@@H](OCCCCO)C2)cc1 | i | 0.84
O=[N+]([O-])c1cc(-c2csc(NC(CO)c3nc4ccccc4n3CCOCCO)n2)ccc1Cl (centres undefined) | i | 0.95
CCOC(=O)c1ccc(NC(=O)CSc2nc3c(c(=O)n2-c2ccccc2OC)SCC3)cc1 | i | 0.81
C=C1CCN([C@@H](CC(C)C)C(=O)NCc2ccc(Cl)c(Cl)c2)S(=O)(=O)c2ccccc21 | i | 0.88
CC(C)=CCc1c(-c2ccc(O)cc2O)oc2c3c(cc(O)c2c1=O)OC(C)(C)C=C3 | i | 0.98
COC(=O)C1=C[C@@H](C(=O)OC)[C@@H]2C3=C(C(=O)[C@@]2(C)NC(=O)c2ccccc2)[C@H](C)C(C(=O)OC)=C(C(=O)OC)[C@@H]3C1 | i | 1.1
CCc1c(C2(O)CCCCC2)[nH]c2ccc(C(=O)OC)cc12 | i | 1.1
Cn1cccc1C1C=C(c2ccc(C(C)(C)C)cc2)Nc2ncnn21 (centres undefined) | i | 0.76
CCO[C@@H]1OC(C(=O)NC2CC2)=C[C@H](C2CCCCC2)[C@H]1CCCO | i | 0.93
C=C1CCN([C@@H](CC(C)C)C(=O)NCCC(C)C)S(=O)(=O)c2ccccc21 | i | 1
COC(=O)[C@@H]1C[C@H]1[C@@H](NC(=O)c1cc(C)on1)c1ccccc1 | i | 0.97
COC(=O)CCC(=O)OC1(C)C(=O)C=C2C=C(C3CC3)OC=C2C1=O (centres undefined) | i | 1
C#C[C@]1(O)CCC2C3CCC4=Cc5oncc5CC4(C)C3CCC21C (some centres undefined) | i | 0.93
COC(=O)[C@@H]1[C@@H](C)N(Cc2ccccc2)C(=O)N[C@H]1c1ccccc1 | i | 0.94
Cc1noc(C)c1CSc1nnc2cc(C)c3ccccc3n12 | i | 0.96
CNC(=O)[C@@]1(Cc2ccccc2)C=C[C@@H](C)N1C(=O)OC | i | 0.94
O=c1[nH]c2cc(Cl)ccc2c(O)c1-c1cccc(Oc2ccccc2)c1 | i | 1
O=C(NCc1ccccc1)C1=C[C@H](c2ccc(C(F)(F)F)cc2)C[C@H](OCCCCO)O1 | i | 0.75
O=C(O)[C@@H](O)[C@H](O)C(=O)O | i | 0.93
CCCCN1CC[C@H]2C=CC[C@@H](C(=O)Nc3ccc(OC)cc3)[C@H]2C1=O | i | 0.9
CCOC(=O)C1Nc2ccc(OC(F)(F)F)cc2C2C=CCC12 (centres undefined) | i | 0.94
CCN1C(=O)N(CN2CCOCC2)C2C1N(CN1CCOCC1)C(=O)N2CC (centres undefined) | i | 0.94
C=C1CCN([C@@H](CC(C)C)C(=O)N2CCOCC2)S(=O)(=O)c2ccccc21 | i | 1
COC(=O)C1NC(=O)N2C(C(=O)OC)C(C)(C)S[C@H]12 (some centres undefined) | i | 0.81
O=C(NCc1cccs1)c1cc(-c2ccccc2)nn1CC1CC(c2cccc([N+](=O)[O-])c2)=NO1 (centres undefined) | i | 0.92
Cc1ccc(Cn2c(C(C)Nc3nc(C)cs3)nc3cc(Cl)c(Cl)cc32)cc1 (centres undefined) | i | 0.78
CC(=O)Oc1ccc([C@@H]2COc3c(ccc4c3C=CC(C)(C)O4)C2)c(OC(C)=O)c1 | i | 1
C=CCn1c(=O)c2c(nc(-c3ccc(S(=O)(=O)O)cc3)n2C)n(C)c1=O | i | 0.85
CC(C)Sc1nnc(NC(=O)C2CC2)s1 | i | 0.83
O=C1C=C(c2cccnc2)CCC1 | i | 1.1
C[C@@H]1CC[C@@]2(O[C@@H](CCO)C[C@@H](O)[C@@H]2O)O1 | i | 0.89
CC(C)(C)c1ccc(C2=CC(c3ccccc3F)n3ncnc3N2)cc1 (centres undefined) | i | 0.95
CC(C(=O)O)c1ccc(CC2CCCC2=O)cc1 (centres undefined) | i | 1.1
COC(C[C@@H]1O[C@@H]1C(=O)[C@@H](C)OCc1ccccc1)OC | i | 0.81
COCCN1C(=O)N[C@@H](c2ccccc2)[C@H](C(C)=O)[C@H]1C | i | 0.85
CCCCN1CC[C@H]2C=CC[C@@H](C(=O)NCCc3ccccc3)[C@H]2C1=O | i | 0.8

Arranged by heavy-atom count (rising): part of the list above.
SMILES | HSV augment | HSV augment primary fold
CC(C)Sc1nnc(NC(=O)C2CC2)s1 | i | 0.83
COC(C[C@@H]1O[C@@H]1C(=O)[C@@H](C)OCc1ccccc1)OC | i | 0.81
CCc1c(C2(O)CCCCC2)[nH]c2ccc(C(=O)OC)cc12 | i | 1.1
CCOC(=O)C1Nc2ccc(OC(F)(F)F)cc2C2C=CCC12 (centres undefined) | i | 0.94
C#C[C@]1(O)CCC2C3CCC4=Cc5oncc5CC4(C)C3CCC21C (some centres undefined) | i | 0.93
CCCCN1CC[C@H]2C=CC[C@@H](C(=O)NCCc3ccccc3)[C@H]2C1=O | i | 0.8
CCC1CCCCN1Cc1nc2c(c(=O)n(C)c(=O)n2C)n1Cc1cccc2ccccc12 (centres undefined) | i | 0.9

Carrying on:
SMILES | HSV augment | HSV augment primary fold
COC(=O)C[C@H]1c2cc(C(F)(F)F)ccc2S(=O)(=O)N1c1ccc(N(C)C)cc1 | i | 0.65
CCCNC(=O)N1C2=NC(C(=O)OC)=C(C(=O)OC)[C@@H]3N(Cc4ccccc4)c4ccccc4[C@]23C[C@H]1CO | i | 0.94
CCc1c(C)[nH]c2c1C(=O)C(CN1CCOCC1)CC2 (centres undefined) | i | 1
COc1ccc(-c2oc3ccc(-c4ccc5c(c4)OCO5)cc3c2C#CC2(O)CCCCC2)cc1 | i | 0.75
CCC1=C[C@H]2CN(C1)Cc1c([nH]c3ccccc13)[C@@](C(=O)OC)(c1cc3c(cc1OC)N(C)[C@H]1[C@@](O)(C(=O)OC)[C@H](OC(C)=O)[C@]4(CC)C=CCN5CC[C@]31[C@@H]54)C2 | i | 0.56
Cc1ccc(Cn2c(C(C)Nc3nc(-c4ccc(Cl)cc4)cs3)nc3cc(C(=O)NCCCO)ccc32)cc1 (centres undefined) | i | 0.88
COc1cc(C)nc(N2CCCC(C(=O)NC3CCC(C)CC3)C2)n1 (centres undefined) | i | 0.91
CC1=C(N2CCN(c3ncccn3)CC2)CCC1=O | i | 1.1
O=c1c2ccccc2sc2ccc(C#CC3(O)CCCCC3)cc12 | i | 0.86
CCCNC(=O)C1(CC2CC(c3ccccc3)=NO2)CCN(C(=O)CCCCCBr)CC1 (centres undefined) | i | 0.75
CNC(=O)c1cc2c(cn1)[nH]c1ccccc12 | i | 0.79
CNC(C)C#Cc1ccc2sc3cc(OC)c(OC)cc3c(=O)c2c1 (centres undefined) | i | 0.67
COC(=O)C1=C(COc2ccccc2)NC(=O)NC1c1ccc(Cl)cc1 (centres undefined) | i | 0.7
COCCN1C=C2C(=O)C(C)(OC(=O)CCC(=O)OC)C(=O)C(Br)=C2C=C1c1ccc(OC)cc1 (centres undefined) | i | 0.76
CCO[C@H]1OC(C(=O)NCc2nc3ccccc3[nH]2)=C[C@@H](c2cn(C(C)=O)c3ccccc23)[C@@H]1CCCO | i | 0.72
O=C1O[C@@H]([C@H](O)CO)C(O)=C1O | i | 0.88
O=S1(=O)CCOC[C@H](Cc2ccccc2)N1Cc1ccccc1 | i | 0.95
Clc1nc2ccccc2cc1-c1nnn(-c2ccccc2Br)n1 | i | 1
COc1ccc(CNC(=O)[C@@H]2CC=C[C@@H]3CCN(Cc4ccc(Cl)c(Cl)c4)C(=O)[C@@H]32)cc1 | i | 0.94
O=C(NCCc1nc(-c2ccccc2Cl)no1)c1ccccc1 | i | 1.1
COC(=O)[C@@H]1C[C@@]2(Br)c3ccccc3N(S(=O)(=O)c3ccccc3)[C@H]2N1C(=O)OC | i | 1
CC(C)(C)[C@H]1C=C(C(=O)O)O[C@@H](OCCCCO)C1 | i | 0.93
O=C(CCCCC(=O)Nc1c(I)cc(I)c(C(=O)O)c1I)Nc1c(I)cc(I)c(C(=O)O)c1I | i | 0.84
O=c1oc2ccccc2c(O)c1/C=N/c1ncccn1 | i | 0.88
CN(C)CCNC(=O)c1c(CSc2ccc(Cl)cc2)noc1C(=O)NCc1ccccc1 | i | 0.77
COc1ccccc1Nc1cc2cc(Br)ccc2c(=O)[nH]1 | i | 0.98
CC(=O)OC1=C(O)C(=O)c2ccccc2C1=O | i | 1.1
COc1cc(/C=C/CO)ccc1O[C@@H]1O[C@H](CO)[C@@H](O)[C@H](O)[C@H]1O | i | 1.1
O=C1N[C@H](Cc2ccccc2)C(=O)N[C@H]1Cc1cn(S(=O)(=O)c2ccccc2)c2ccccc12 | i | 0.74
O=c1ncc(F)c[nH]1 | i | 0.8
O=C(NCc1ccccc1)C1(C(F)(F)F)C/C(=C/CCO)CCCO1 (centres undefined) | i | 0.81
CC1(C)c2[nH]c3ccccc3c2C[C@@H]2C(=O)N(Cc3ccccc3Cl)C(=O)N21 | i | 1.1
O=C(N[C@H](CO)Cc1ccccc1)c1ccco1 | i | 1
CCOC(=O)C[C@H]1c2ccc(C(F)(F)F)cc2S(=O)(=O)N1c1ccccc1 | i | 0.88
CCCCNC(=O)c1onc(CSc2ccccn2)c1C(=O)NCCCC | i | 0.89
C#CCOCCOCCOCCNc1nc(N2CCN(C(=O)C([C@@H](C)CC)n3cc(C(N)COC(=O)C(F)(F)F)nn3)CC2)nc(N2CCN(C(=O)C([C@@H](C)CC)n3cc(C(N)CC(C)C)nn3)CC2)n1 (some centres undefined) | i | 0.71
CCCCCCCCN1[C@@H](CC(=O)O)c2cc(F)ccc2S1(=O)=O | i | 0.79
COC(=O)C1=CO[C@@H](O[C@@H]2OC(CO)[C@@H](O)[C@@H](O)[C@@H]2O)C2C1CC[C@]2(C)O (some centres undefined) | i | 1.1
CC1(c2nnc(Cc3ccccc3)o2)CC(c2c(Cl)cccc2Cl)=NO1 (centres undefined) | i | 0.95
COc1ccc(-c2csc(NCCc3nc4cc(Cl)c(Cl)cc4n3CCCO)n2)cc1 | i | 0.87
COC(=O)C1=C(C)N(Cc2ccccc2)C(=O)N[C@H]1c1ccco1 | i | 0.66
NC(=O)C1=C[C@@H](c2ccc3c(c2)OCO3)C[C@@H](OCCCCO)O1 | i | 0.58
CCOC(=O)[C@@H]1[C@H]2COc3cc(OC)ccc3[C@@H]2N2C(=O)N(c3ccc(Cl)cc3)C(=O)[C@]12C | i | 0.76
C[C@H](O)[C@@]1(O)CC[C@H]2[C@@H]3CC[C@@H]4C[C@H](O)CC[C@]4(C)[C@H]3CC[C@@]21C | i | 1
COc1ccc(CNC(=O)C2(CC3CC(c4ccccc4)=NO3)CCN(C(=O)c3cccc(O)c3)CC2)cc1 (centres undefined) | i | 0.88
CCN(CC)CCCN1C(=O)C(=O)/C(=C(/O)c2ccc(Cl)cc2)C1c1ccccn1 (centres undefined) | i | 0.99
CCCCN1C(N)=NC[C@@H]1CCCCN | i | 0.77
c1ccc(-c2ccc3ccccc3n2)cc1 | i | 1
COC(=O)C[C@H]1c2ccc(C(F)(F)F)cc2S(=O)(=O)N1Cc1ccccc1 | i | 0.95
CC(C)(C)OC(=O)N1CCC2(CC1)Oc1ccc(F)cc1C(=O)C21CC(c2ccccc2)=NO1 (centres undefined) | i | 0.88
CC(C)N(C(=O)Cn1c(SCC(=O)N2CCN(c3ccccc3)CC2)nc2ccccc21)C(C)C | i | 0.89
OCCCn1c(C2CCCN2c2nc(-c3ccc(Cl)cc3)cs2)nc2cc(C(F)(F)F)ccc21 (centres undefined) | i | 0.92
CCOC(=O)OC(C)OC1=C(C(=O)Nc2ccccn2)N(C)S(=O)(=O)c2ccccc21 (centres undefined) | i | 1.1

Entries from the list above containing a nitro group on carbon:
SMILES | HSV augment | HSV augment primary fold
Cc1ccc(Cn2c(C(CO)Nc3nc(-c4ccc(Cl)c([N+](=O)[O-])c4)cs3)nc3ccccc32)cc1 (centres undefined) | i | 0.69
O=[N+]([O-])c1cc(-c2csc(NC(CO)c3nc4ccccc4n3CCOCCO)n2)ccc1Cl (centres undefined) | i | 0.95
O=C(NCc1cccs1)c1cc(-c2ccccc2)nn1CC1CC(c2cccc([N+](=O)[O-])c2)=NO1 (centres undefined) | i | 0.92

Bioassay records: PubChem, SRMLSC

Not all compounds are listed; the hit share may differ from the screen's.
